Calb biofilm kill: mixture kills Candida albicans biofilm cells | C. albicans biofilm persisters + clotrimazole, fluorescence viability; primary screen in compound mixtures of four per well | inhibition, % at 7.6 µM | 120,000 tested, 0.02% active;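 active means inhibition above 30.3% in the primary screen of four-compound pools, then above 30% when the compound was retested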;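 further: compounds exposed to preformed 24 h biofilms for 48 h; the number belongs to the whole pool; some results filed as inactive read as strong as hits; inactives centre near 12; 0% = biofilm with clotrimazole alone and 100% = kill control; retested singly at about 60 µM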
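System: C. albicans CAF4-2 wild-type biofilms; Medium: RPMI/MOPS medium, pH 7.0; Reagent: Clotrimazole, 50 µg/mL; Times: biofilm formation 24 h, compound exposure 48 h, 37 °C; Detection: 2-h Alamar Blue fluorescence, 535/590 nm excitation/emission; Evaluation: percent inhibition of biofilm viability.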
* hit, by the source's call. A portion of the library. The share of hits here may be higher or lower than overall.

SMILES	Calb biofilm kill
CCCCC[C@H](O)/C=C/[C@@H]1[C@@H](C/C=C\CCCC(=O)O)[C@H]2CO[C@@H]1C2	23
Cc1nn(-c2ccccc2)c(C)c1/C=N/NC(=O)CSc1nnc(SCc2ccccc2Cl)s1	13
CSc1nn(-c2ccc(C(=O)OCC(=O)NC(=O)NC(C)C)cc2)c(=S)s1	0
CCOC(=O)c1sc(=S)n(-c2ccccc2)c1N	7
CCO/C=C1/C(=O)N(C(C)=O)c2ccccc21	3
Cc1nc2sc(C(N)=O)c(N)c2c2c1CCCC2	16
CC1CCC/C(=C\Nc2ccc(C(=O)O)c(O)c2)C1=O (configuration not stated)	3
CN(C)/C=C/C(=O)c1ccncc1	-4
CCNC(=S)N(Cc1cc2c(C)ccc(C)c2[nH]c1=O)C1CCCC1	-1
Cc1c(NC(=O)CC2NC(=O)NC2=O)c(=O)n(-c2ccccc2)n1C (configuration not stated)	5
CN1CCN(c2ccc(NC(=O)c3ccc4c(c3)OCCO4)cc2Cl)CC1	13
CCn1cc(/C=C2/SC(=S)NC2=O)c(C)n1	9
Cc1ccc(C(=O)C(c2ccccc2)N2Cc3ccccc3C2=N)cc1 (configuration not stated)	0
COc1ccc(/C(C)=N/Nc2cccc(C(=O)O)c2)cc1OC	12
COc1ccc(N2CCN(C(=O)Cn3cnc4c3c(=O)n(C)c(=O)n4C)CC2)cc1	-3
CC1CN(C(=O)Nc2ccc(Br)cc2Cl)CC(C)O1 (configuration not stated)	19
CCN(c1ccccc1)S(=O)(=O)c1ccc(C(=O)NCCCn2ccnc2)cc1	8
O=[N+]([O-])c1ccc(Sc2ccccc2)nc1	17
CCOC(=O)Cc1csc(NC(=O)c2sc3nc4cc(C)ccc4cc3c2N)n1	15
CC(CN1CCOCC1)OC(=O)C(C)(c1ccccc1)c1ccccc1 (configuration not stated)	7
Cn1c(N)c(C(=O)COC(=O)c2cc(-c3ccco3)nc3ccccc23)c(=O)n(Cc2ccccc2)c1=O	9
CC(C)O/N=C1\C(=O)N(c2ccccc2)c2ccccc21	19
CC(C)(C)c1ccc(-c2nn(CCC#N)cc2/C=N/O)cc1	12
CCOc1ccc(NC(=O)Cc2ccccc2)c([N+](=O)[O-])c1	5
Cc1ccc(S(=O)(=O)N2CCCCC2)cc1NC(=O)CSc1nncn1-c1ccccc1	-3
COc1cc(/C=N/NC(=O)c2ccc(CN3C(=O)c4cccc5cccc3c45)cc2)cc(OC)c1O	19
CN(C)S(=O)(=O)c1cccc(-c2nnc3n2CCCCC3)c1	14
CCCC12C(=O)C(C)(C(c3ccccc3)=C1c1ccccc1)C1C(=O)N(c3ccc(C)cc3)C(=O)C12 (configuration not stated)	4
Cc1ccc(N/C(N)=N/c2nc(C)cc(C)n2)cc1	9
CCn1cc(S(=O)(=O)c2ccc(C)cc2)[nH]c1=O	2
O=C(NCC1CCCCC1)c1cccc(S(=O)(=O)NCc2cccnc2)c1	-1
Oc1c(/C=C/C=C/C=Nc2ccccc2)sc(=S)n1Cc1ccccc1	21
CCC1Oc2ccc(C)cc2N(CC(=O)N(Cc2cccnc2)Cc2cccc(F)c2)C1=O (configuration not stated)	6
CC(=O)N1CCN(c2ccc([N+](=O)[O-])cc2C#N)CC1	14
COc1ccc(CNCc2cccc(Cl)c2)cc1	20
CCCCN1CCNC1=S	19
CC(Sc1nc2cc([N+](=O)[O-])ccc2n1-c1ccc(F)cc1)C(=O)NCc1ccc2c(c1)OCO2 (configuration not stated)	9
COc1cccc(CNC(=O)CCC2CCCN(c3cc(C)nc(N(C)C)n3)C2)c1 (configuration not stated)	27
COc1ccc(CCN2C(=O)CS/C2=N/NC(=O)c2ccccc2F)cc1OC	7
CCN1CCN(c2oc(-c3ccco3)nc2C#N)CC1	12
CSCCC(C(=O)N1CC2(C)CC1CC(C)(C)C2)N1C(=O)c2ccccc2C1=O (configuration not stated)	-10
CC1(C)C/C(=N\NC(=S)Nc2ccccc2F)c2cc(O)ccc2O1	10
O=C1CCCC/C1=N\Nc1ccc(C2CCCCC2)cc1	2
Cc1ccc(OCC(=O)NNC(=O)CSc2nnc(-c3ccc(C)cc3)n2C)cc1	17
O=C(/C=C/c1cccs1)N1CCN(Cc2ccc3c(c2)OCO3)CC1	-4
CN(Cc1cn(-c2ccccc2)nc1-c1ccc2c(c1)OCO2)Cc1nccn1C	1
CCO[C@@H]1OC(C(=O)NCc2nc3ccccc3[nH]2)=C[C@H](c2ccc(C(F)(F)F)cc2)[C@H]1CCCO	20
CCN(C(=O)CSc1ncccc1C(=O)Oc1cccc([N+](=O)[O-])c1)c1cccc(C)c1	13
CCOC(=O)C(O)(CC(=O)Nc1cc(F)ccc1C)C(F)(F)F (configuration not stated)	17
Cc1cc(C)cc(NC(=O)CCC(=O)Nc2cc(C)on2)c1	11
O=C(CC(=O)N/N=C/c1c(F)cccc1Cl)NCc1ccccc1	19
Cc1ccc(C(=O)N2C(=S)C(c3ccc(F)cc3)=NC23CCN(C)CC3)cc1	10
Clc1ccc(-c2csc(N/N=C/c3ccc4c(c3)OCO4)n2)cc1	6
COc1nc(Nc2ccc([N+](=O)[O-])cc2)nc(NC2CCCCC2)n1	18
CCC(C)NC(=S)Nc1ccc(F)cc1 (configuration not stated)	23
CS(=O)(=O)N1CCC(C(=O)NCc2ccc(Cl)cc2)CC1	15
CCCS(=O)(=O)N1CCC(C(=O)NCc2ccc3c(c2)OCO3)CC1	15
Cc1cc(-c2n[nH]c(=S)n2/N=C/c2ccco2)n[nH]1	15
CCOC(=O)Cc1nnc(NC(=O)CSc2ncc(-c3ccccc3)nn2)s1	9
S=c1[nH]nc(CCSCc2ccccc2)n1-c1ccccc1	7

More entries:
SMILES	Calb biofilm kill
CCC(CC)c1nnc(NC(=O)c2cc(-c3ccccc3)nc3ccccc23)s1	-7
Cc1cccc(NC(=O)CN2C(=O)C(C)Oc3ccccc32)n1 (configuration not stated)	8
Cc1ccc(C(=O)c2cc([N+](=O)[O-])ccc2N2CCOCC2)cc1C	19
CCOC(=O)C1=C(CN2CCOCC2)NC(=O)NC1c1cccc([N+](=O)[O-])c1 (configuration not stated)	5
CC(=O)c1ccc(NC(=S)NCCCn2ccnc2)cc1	-2
CCOc1ncccc1C(=O)OCc1ccc(Cl)cc1	4
Cc1[nH]c2ccccc2c1SCCNC(=O)c1ccc(Br)o1	14
Cc1onc(-c2ccccc2)c1NC(=O)Nc1ccc(OC(F)F)cc1	18
CCOc1ccccc1NC(=O)c1ccc([N+](=O)[O-])cc1	0
COc1ccc(S(=O)(=O)N/N=C/c2ccc(OCCN3CCOCC3)c(OC)c2)cc1	3
COc1oc(-c2ccc(Cl)cc2)nc1C(F)(F)F	10
O=C(Nc1ccccc1C(=O)O)c1cc(S(=O)(=O)N2CCCCC2)cs1	-7
Cc1ccc(-c2csc(NC(=O)c3cc([N+](=O)[O-])ccc3N3CCOCC3)n2)cc1	18
CN1C(=O)CSc2ccc(NC(=O)NCc3ccccc3)cc21	14
O=C(N/N=C/c1c(Cl)[nH]c2ccccc12)c1sc2ccccc2c1Cl	8
O=C1NC(c2ccccc2)Nc2c1sc(=S)n2-c1ccccc1 (configuration not stated)	13
CCc1ccc2c(c1)C(O)(CC(=O)c1cccs1)C(=O)N2 (configuration not stated)	15
Cc1ccc(C(=O)Nc2nnc(-c3ccncc3)o2)cc1	17
Cc1cc(C)cc(OCC(=O)OCc2nnc(-c3ccccc3)o2)c1	8
O=C1c2ccccc2C(=O)c2c1ncn2-c1ccccc1	14
O=C(/C=C/c1ccccc1)NCCc1ccccc1	-2
Fc1ccc(N/N=C/C=C/c2ccccc2)c(F)c1	1
CCOC(=O)Nc1sc(C)c(C)c1C(=O)OCC	12
CCN(Cc1ccccc1)C(=O)c1ccc(Cl)cc1[N+](=O)[O-]	22

5 successive compounds already listed:
SMILES	Calb biofilm kill
Cc1ccc(-c2csc(NC(=O)c3cc([N+](=O)[O-])ccc3N3CCOCC3)n2)cc1	18
CN1C(=O)CSc2ccc(NC(=O)NCc3ccccc3)cc21	14
O=C(N/N=C/c1c(Cl)[nH]c2ccccc12)c1sc2ccccc2c1Cl	8
O=C1NC(c2ccccc2)Nc2c1sc(=S)n2-c1ccccc1 (configuration not stated)	13
CCc1ccc2c(c1)C(O)(CC(=O)c1cccs1)C(=O)N2 (configuration not stated)	15

More records follow:
SMILES	Calb biofilm kill
CC(=O)C1C(c2ccc([N+](=O)[O-])cc2)c2c(noc2C)CC1(C)O (configuration not stated)	-33
COc1ccc(N=C2NN=C(c3c(C)[nH]c4ccccc34)CS2)cc1	15
COc1ccccc1C1CC(c2ccco2)=NN1S(C)(=O)=O (configuration not stated)	13
CNC(=S)NNc1ccccc1[N+](=O)[O-]	2
Nc1cnc(CNc2ccccc2Cl)cn1	14
COc1cc(NC(=O)CSc2nnc3ccc(-c4ccncc4)nn23)cc(OC)c1	16
O=C1CSc2ccc(C(=O)NCC(c3ccco3)N3CCCCC3)cc2N1 (configuration not stated)	15
C=CCNC(=O)NC(=O)COC(=O)/C=C/c1cccc([N+](=O)[O-])c1	5
CCN(CC)S(=O)(=O)c1ccc(NC(=O)c2ccc(Cl)nc2)cc1	-21
CSc1nnnn1-c1ccc(Cl)cc1	2
Cc1ccc(CC(=O)NC2CCSC2=O)cc1 (configuration not stated)	4
COc1ccc(NC(C)=O)c(C)c1	5
CCN(CC)S(=O)(=O)c1ccc(NC(=O)COC(=O)CNS(=O)(=O)/C=C/c2ccccc2)cc1	20
COc1ccc(/C=C/C(=O)NCc2cccnc2)cc1	17
CCCn1c(=O)c(C(=O)Nc2ccccc2)c(O)c2ccccc21	10
C=CCNC(=O)c1c(Cl)nc(C)c([N+](=O)[O-])c1C	12
Cc1[nH]c2ccccc2c1C(=O)C(=O)NCCc1ccc(S(N)(=O)=O)cc1	9
O=C(CCc1ccccc1)N/N=C/c1cccc(O)c1	23
Cc1[nH]c2ccccc2c1CCNC(=O)c1c(N)no[n+]1[O-]	5
COC(=O)N/N=C/c1ccc(-c2ccc(Cl)c(Cl)c2)o1	20
CSCCC(NC(=O)c1cc([N+](=O)[O-])ccc1Cl)C(=O)O (configuration not stated)	-2
CCCc1n[nH]c2c1/C(=N\OCC)CC(C)(C)C2	13
CC(CN(C)Cc1ccccc1)OC(=O)c1cccc(F)c1 (configuration not stated)	4
COc1ccc(C(CNC(=S)NCc2ccccc2)N2CCCC2)cc1 (configuration not stated)	8

An excerpt of these results, with each value named:
Molecule: Cc1[nH]c2ccccc2c1CCNC(=O)c1c(N)no[n+]1[O-]
  Calb biofilm kill = 5
Molecule: COC(=O)N/N=C/c1ccc(-c2ccc(Cl)c(Cl)c2)o1
  Calb biofilm kill = 20
Molecule: CSCCC(NC(=O)c1cc([N+](=O)[O-])ccc1Cl)C(=O)O (configuration not stated)
  Calb biofilm kill = -2
Molecule: CCCc1n[nH]c2c1/C(=N\OCC)CC(C)(C)C2
  Calb biofilm kill = 13

More entries:
SMILES	Calb biofilm kill
COc1ccc(CNc2ccc(S(N)(=O)=O)cc2)cc1	7
O=C(OC1CCOC1=O)c1ccc(N2CCCC2)c([N+](=O)[O-])c1 (configuration not stated)	-4
CCc1nnc(NC(=O)C2CCN(S(=O)(=O)c3ccc(C)cc3)CC2)s1	25
Cc1ccc(S(=O)(=O)N2CCC(=O)N(C(COCc3ccc(Cl)c(Cl)c3)Cc3ccccc3)CC2)cc1 (configuration not stated)	15
Cc1[nH]c2c(Cl)cccc2c1CCNC(=O)C1CCCCC1C(=O)OCC(F)(F)F (configuration not stated)	9
O=C(Nc1ccccc1[N+](=O)[O-])c1cccnc1Cl	13
CCOC(=O)c1nn(-c2ccccc2C)c2nc(Nc3ccccc3)cc(=O)n12	16
CCc1nc(C#N)c(N2CCOCC2)o1	5
CCOC(=O)Cc1nnc(-c2ccccc2)o1	8
CCOC(=O)c1c(C)[nH]c(C2=NNC(=NC3CC3)SC2)c1C	1
CN(C(=O)CSc1nnc(-c2n[nH]c3ccccc23)o1)c1ccccc1	17
CC(C)NS(=O)(=O)c1ccc(NC(=S)NC(=O)c2cccc([N+](=O)[O-])c2)cc1	22
CCCCc1ncc(CN2CCN(Cc3ccc(C)cc3)C(CCO)C2)[nH]1 (configuration not stated)	14
O=C(Cc1ccc([N+](=O)[O-])cc1)Nc1ccc(Cl)cc1	2
O=C1c2ccncc2C(=O)N1CNc1ccc(Cl)cc1	13
CCC(=O)N1CCN(c2ccc(NC(=S)NC(=O)C(C)C)cc2)CC1	8
O=S(=O)(c1cccc(Cl)c1Cl)N1CCN(C(=S)NCCCN2CCOCC2)CC1	0
CCCNC(=O)c1cc2ccccc2c(=O)o1	7
CC1Cc2ccccc2N1CC(=O)NC(=O)NC(C)(C)C (configuration not stated)	7
CNC(=S)Nc1ccc(OC(F)(F)F)cc1	-4
Nc1nc(NC(=O)c2ccccc2)nn1-c1ccccc1	13
C#CCOCCOCCOCCNc1nc(N2CCN(C(=O)[C@H](CCCCN)n3cc([C@@H](N)CO)nn3)CC2)nc(N2CCN(C(=O)[C@H](Cc3cc4ccccc4[nH]3)n3cc([C@@H](N)CC(C)C)nn3)CC2)n1	10
COCC(C)NCc1ccc(OC)c(Br)c1 (configuration not stated)	14
CC(C)C(NC(=O)OCc1ccccc1)C(=O)OCC(=O)NC1CC1 (configuration not stated)	17
O=C(O)Cc1ccc(NC(=O)c2ccc(Cl)c(Cl)c2)cc1	10

Given in CSV form: part of the list above
structure,Calb biofilm kill
CCCNC(=O)c1cc2ccccc2c(=O)o1,7
CC1Cc2ccccc2N1CC(=O)NC(=O)NC(C)(C)C (configuration not stated),7
CNC(=S)Nc1ccc(OC(F)(F)F)cc1,-4
Nc1nc(NC(=O)c2ccccc2)nn1-c1ccccc1,13
C#CCOCCOCCOCCNc1nc(N2CCN(C(=O)[C@H](CCCCN)n3cc([C@@H](N)CO)nn3)CC2)nc(N2CCN(C(=O)[C@H](Cc3cc4ccccc4[nH]3)n3cc([C@@H](N)CC(C)C)nn3)CC2)n1,10
COCC(C)NCc1ccc(OC)c(Br)c1 (configuration not stated),14

Bioassay records: PubChem, PCMD
